# KCNQ2 inh = KCNQ2 channel blockers in CHO-K1 cells – cell-based, FluxOR thallium flux, B-score, primary screen (AID 2156). 20 min; active compounds read low; only compounds with negative scores are shown here; some inactives read as strong as hits. B-score at 10 µM. 310,000 compounds, 1.1% hits;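 active = fluorescence ratio B-score at most minus 3 library SDs, with starting brightness B-score within 2 library SDs, cut at about -5.5 in these data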
# Target sequence (O88943 whole entry, looked up): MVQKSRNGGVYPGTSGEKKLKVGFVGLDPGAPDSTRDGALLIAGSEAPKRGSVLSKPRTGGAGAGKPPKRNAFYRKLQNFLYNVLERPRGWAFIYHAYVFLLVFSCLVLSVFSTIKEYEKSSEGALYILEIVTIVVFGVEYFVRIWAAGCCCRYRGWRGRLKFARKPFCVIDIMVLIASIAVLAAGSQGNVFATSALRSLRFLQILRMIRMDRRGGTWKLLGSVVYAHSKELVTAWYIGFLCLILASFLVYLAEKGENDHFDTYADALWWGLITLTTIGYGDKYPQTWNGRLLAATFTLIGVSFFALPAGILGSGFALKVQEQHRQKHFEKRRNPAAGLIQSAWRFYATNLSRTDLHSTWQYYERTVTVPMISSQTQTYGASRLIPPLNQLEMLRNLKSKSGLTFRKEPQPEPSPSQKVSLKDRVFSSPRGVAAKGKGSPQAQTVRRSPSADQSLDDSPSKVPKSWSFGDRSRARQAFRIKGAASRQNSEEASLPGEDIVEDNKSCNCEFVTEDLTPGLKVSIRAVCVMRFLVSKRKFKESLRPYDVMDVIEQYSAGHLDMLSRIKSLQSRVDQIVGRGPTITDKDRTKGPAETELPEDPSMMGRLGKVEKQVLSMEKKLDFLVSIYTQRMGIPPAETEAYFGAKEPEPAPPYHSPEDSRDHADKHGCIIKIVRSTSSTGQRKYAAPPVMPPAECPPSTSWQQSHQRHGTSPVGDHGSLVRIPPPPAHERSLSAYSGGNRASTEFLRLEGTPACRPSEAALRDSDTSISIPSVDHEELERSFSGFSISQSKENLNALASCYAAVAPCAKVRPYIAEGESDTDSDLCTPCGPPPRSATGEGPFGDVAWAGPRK
# KCNQ2 inh baseline = also measured in KCNQ2 inh; calls as there; B-score; measured here: initial fluorescence intensity artifact check;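 brightness before thallium and not channel activity; 0 = typical well and far values either way flag optical interference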
# * = called active by the depositor; i = inactive.
KCNQ2 inh baseline | KCNQ2 inh | smiles
1.7 | i | COc1ccccc1CNC(=O)CCS(=O)(=O)c1ccc(Cl)cc1
0.16 | i | COc1cc(C(=O)NCc2ccccc2)cc(Br)c1OC
1.5 | i | C/C(=N/NC(=O)CNC(=O)c1ccncc1)c1ccco1
1.6 | i | CCN1CSC(=S)N(Cc2ccc(OC)cc2)C1
-0.58 | i | CCC1=C(OC(=O)N(CC)CC)N2C(=O)OC(=NCc3ccccc3)[C@]2(C)[C@H]2C1=CC[C@H]1C(=O)N(CC(=O)OC)C(=O)[C@H]12
-0.03 | i | Cc1c(C)n(C)c2ccc(C(=O)N3CCN(c4ccccn4)CC3)cc12
-0.37 | i | O=C(NN=C1CCCC1)c1cc(O)cc(O)c1
0.25 | i | CC(C)[N+]1=C2C=CC=CC=C2SC12C([N+](=O)[O-])=CC(=[N+]([O-])[O-])C=C2[N+](=O)[O-] (stereo not given)
0.24 | i | CC12CCC(=O)N1C(C(=O)Nc1ccc(F)cc1)CS2 (stereo not given)
-0.67 | i | COc1ccc(NS(=O)(=O)c2ccc(N3CCOCC3)c(NC(=O)c3ccc(OC)cc3)c2)cc1
-0.48* | -5.6* | O=C(COc1ccc(Br)cc1)N1CCC(c2ccccc2)C1 (stereo not given)
0.62 | i | O=C(COc1ccccc1)Nc1nc2c(s1)CCCC2
-0.02 | i | CCN1CCN(C(=S)Nc2ccc(Cl)cc2Cl)CC1
1.8 | i | O=C(NNC(=O)C1[C@H]2CCCC[C@@H]12)c1ccc(=O)oc1 (stereo not given in full)
0.46 | i | COc1cc2c(cc1OC)C(C(=O)NC1CC1)C1c3ccccc3CCN1C2=O (stereo not given)
-1.1 | i | O=C(NP(=O)(N1CCCC1)N1CCCC1)C1=C(N2CCOCC2)/C(=C/c2cccc([N+](=O)[O-])c2)CC1
0.42 | i | O=C(CNC(=O)c1cccs1)OCc1ccc(Cl)cc1
-1.2 | i | CCCNC(=O)COC(=O)c1[nH]c(C)c(C(=O)OCC)c1C
2.7 | i | COCCNC(=O)c1cccc(OC2CCN(Cc3ccc(Cl)c(F)c3)CC2)c1
-0.29 | i | O=C(CCN1C(=O)/C(=C/c2ccccc2F)SC1=S)N[C@@H](CO)Cc1ccccc1
1.6 | i | COc1ccc(CNC(=O)c2ccc(N3CCCC3=O)cc2)cc1
-1.5 | i | CCn1cc(C(=O)NCCCN2CCC(C)CC2)c(=O)c2cc(S(=O)(=O)N(C)C3CCCCC3)ccc21
-1.1 | i | COc1ccc(C(c2nnnn2C2CCCC2)N2CCc3ccccc3C2)cc1OC (stereo not given)
0.02 | i | Oc1cccc(C=Nc2cccc3ccccc23)c1O
0.07 | i | O=c1[nH]c2ccccc2n1CCCN1CCN(C(c2ccccc2)c2ccccc2)CC1
0.42 | i | COc1ccc(C)cc1NC(=O)c1cc(S(=O)(=O)N2CCC3(CC2)OCCO3)ccc1F
1.1 | i | CCOC(=O)c1[nH]cnc1C(=O)NC(C)C
0.01 | i | O=C(c1ccc(Cl)cc1)N1CCCC(C(=O)N2CCc3ccccc3C2)C1 (stereo not given)
-0.42* | -6* | COc1ccc(CN(C)C(c2ccccc2)c2nnnn2-c2ccccc2C)c(OC)c1C (stereo not given)
-1.3 | i | CSc1ccccc1C(=O)N1CCc2ccccc2C1
-0.39 | i | COc1ccccc1NC(=O)c1sc2ncn(CC(=O)Nc3ccccc3)c(=O)c2c1C
-0.29 | i | Cc1cc(NC(=O)CN2CCN(c3ccccc3O)CC2)no1
1.1 | i | CCOC(=O)c1c(NC(=O)CSc2nnc(-c3cccnc3)o2)sc(C(C)=O)c1C
0.09 | i | COc1ccccc1CNCc1cccs1
-0.83 | i | Cc1cccc(C)c1NC(=S)N(CCc1ccncc1)C(C)C
-1.7 | i | O=C(N/C(=C\c1ccco1)C(=O)N1CCOCC1)c1ccco1
-0.15 | i | COc1ccc([N+](=O)[O-])cc1NC(=O)COC(=O)C=C(C)C
0.9 | i | COc1ccc2c(=O)c(-c3ccccc3C)c(C)oc2c1
3 | i | O=C(COC(=O)[C@H](Cc1ccccc1)NC(=O)c1cccs1)NC1CCCCC1
-0.37 | i | COc1ccc2[nH]c(=O)c(CN(CCO)S(=O)(=O)c3ccc4c(c3)OCCO4)cc2c1
-0.64 | i | O=C(CSc1nnc2ccc(-c3cccnc3)nn12)Nc1ccccc1F
-0.09 | i | Cc1cc(Nc2cccc(C(F)(F)F)c2)n2nc(C)nc2n1
1.1 | i | CC(C)OC(=O)CSc1nnc(-c2ccc(C(C)(C)C)cc2)n1N
-1.1 | i | COc1ccc(OC)c(S(=O)(=O)N2CCC(C(=O)NCc3ccncc3)CC2)c1
0.71 | i | CCc1nnc(NC(=O)CCN(c2ccc(C)cc2)S(=O)(=O)c2ccccc2)s1
0.01* | -9* | CCN(CC)CCC(=O)c1ccc(F)cc1
1 | i | Cc1ccc(N2C(=O)c3ccccc3C2Nc2ccc(S(=O)(=O)N3CCCCC3)cc2)nc1 (stereo not given)
-0.41 | i | c1ccc(N2CCN(c3ncnc4scc(-c5cccs5)c34)CC2)cc1
-1.8 | i | CCOc1ccc(-c2cc(C(=O)NCCCN3CCCC3)c3ccccc3n2)cc1
2 | i | CCC(=O)OCc1c(C(F)(F)F)nn(C)c1Sc1ccc(F)cc1

# No new results follow: five of the compounds above.
KCNQ2 inh baseline | KCNQ2 inh | smiles
0.01 | i | O=C(c1ccc(Cl)cc1)N1CCCC(C(=O)N2CCc3ccccc3C2)C1 (stereo not given)
-0.42* | -6* | COc1ccc(CN(C)C(c2ccccc2)c2nnnn2-c2ccccc2C)c(OC)c1C (stereo not given)
-1.3 | i | CSc1ccccc1C(=O)N1CCc2ccccc2C1
-0.39 | i | COc1ccccc1NC(=O)c1sc2ncn(CC(=O)Nc3ccccc3)c(=O)c2c1C
-0.29 | i | Cc1cc(NC(=O)CN2CCN(c3ccccc3O)CC2)no1

# (list continues)
KCNQ2 inh baseline | KCNQ2 inh | smiles
-0.17 | i | Cc1oc(-c2ccc(C(F)(F)F)cc2)nc1CN(Cc1ccccn1)C[C@@H]1CCC(=O)N1
-0.43 | i | O=C(c1cc(-c2ccc(F)cc2)on1)N1CCOCC1
0.65 | i | CCOC(=O)c1ccc(N2CCN(c3cc(C)ccc3C)CC2)c(N)c1
4.7 | i | CCc1ccc(OCC(O)CN2CCC(CN3C(=O)c4cccc5cccc(c45)C3=O)CC2)cc1 (stereo not given)
-1.7 | i | COC(=O)/C(=C\Nc1cccc(Cl)c1C)c1ncc(C(F)(F)F)cc1Cl
0.34 | i | Cc1ccc(NC(=O)C(C)OC(=O)/C=C/c2ccccc2)cc1 (stereo not given)
0.33 | i | COc1ccc(-c2c(C#N)c(SCc3c(C)noc3C)nc3c2C(=O)CC(C)(C)C3)cc1
0.02 | i | O=C(COc1ccc(F)cc1)Nc1nc2c(s1)CCCC2
0.62 | i | COc1ccc(C(=O)CC(=O)c2ccc(F)cc2)cc1
-0.39 | i | CN1/C(=C/C(=O)c2nc(S(C)(=O)=O)ncc2Cl)C(C)(C)c2ccccc21
4.8 | i | CCOC(=O)C1=C(C)OC(N)=C(C#N)C1c1cc(SCC)oc1C (stereo not given)
-0.28 | i | O=C(O)c1ccccc1N(c1ccccc1)c1ccccc1
0.83 | i | O=[N+]([O-])c1ccc(F)cc1OCc1nc(-c2cccs2)no1
-0.02 | i | CN(CC(=O)Nc1ccccc1Cl)C1CCCCC1
1.9 | i | S=C1NC2=C(CCCC2)C2(CCCCC2)N1
-0.96 | i | CCS(=O)(=O)N1Cc2ccccc2CC1C(=O)Nc1nc2c(C)cccc2s1 (stereo not given)
0.03 | i | COc1ccc(CNCc2ccncc2)cc1OC
-1.6 | i | C/C(=N/NC(=O)c1cn(-c2cccc(C)n2)cn1)c1ccc(C)cc1
-0.02 | i | O=C(NCCc1csc(-c2ccccc2)n1)c1cccs1
0.65 | i | COc1ccccc1CNC(=O)C1Cc2ccccc2C(=O)O1 (stereo not given)
0.03 | i | CCOC(=O)C1CCCC(NS(=O)(=O)c2ccc(NC(C)=O)cc2)C1 (stereo not given)
0.91 | i | CCOc1ccc(S(=O)(=O)NCCC(=O)N2CCN(c3ccccc3O)CC2)cc1
0.09 | i | O=[N+]([O-])c1ccc(N/N=C\c2cccn2-c2ccccc2)nc1
-0.8 | i | COc1ccc(CCNC(=O)c2ccc(N(C)S(=O)(=O)c3ccc(C)cc3)cc2)cc1OC
-1.3 | i | O=C(NCCCN1CCOCC1)c1cc(S(=O)(=O)N2CCN(c3ccccc3)CC2)ccc1Cl
-0.16 | i | Cc1noc(C(=O)N2CCN(Cc3ccc4c(c3)OCO4)CC2)c1Cl
-0.52 | i | COc1ccc(C(=O)NCC(=O)N2CCN(c3ccc(Cl)cc3)CC2)cc1
0.73 | i | CCCc1cc(C(=O)N2CCCC(CO)(CCCc3ccccc3)C2)n(C)n1 (stereo not given)
-0.5 | i | CSc1nsc(SC)c1C(=O)N1CCN(S(=O)(=O)c2ccc(C)cc2)C1C (stereo not given)
-0.57 | i | CCCC(C(=O)NCc1ccc(OC)cc1)N(Cc1ccco1)C(=O)c1snc(C(N)=O)c1N (stereo not given)
0.33 | i | CCOC(=O)c1cc2c(ccn2C)n1CC(=O)N(CC)CC
-0.23 | i | CCOc1ccccc1/C=N\Nc1cnn(Cc2ccccc2)c(=O)c1Cl
0.56 | i | COc1ccc(C(C)=O)cc1CN(C)C
-0.04 | i | COP(=O)(OC)c1nc(-c2cccc3ccccc23)oc1N1CCCCC1
0.38 | i | CCC(C)[C@@H](CN(N=O)[C@@H](Cc1ccccc1)CN(C)N=O)N(CCc1ccccc1)N=O (stereo not given in full)
1.6 | i | CC1CCN(S(=O)(=O)c2cc3c4c(c2)C(C)C(=O)N4CCC3)CC1 (stereo not given)
0.08 | i | Cn1c2ccccc2c2cnn(CC(=O)Nc3cccc(F)c3)c(=O)c21
-0.13 | i | Fc1ccccc1CSc1nnnn1-c1ccc2c(c1)OCO2
-1.2 | i | O=C(NC1=NCCS1)c1cc(-c2ccc(-c3ccccc3)cc2)nc2ccccc12
-2.2 | i | COc1ccc(-c2nnc(SCC(=O)N3CCOCC3)o2)cc1OC
-1.6 | i | O=C(Nc1nc2ccccc2s1)C1=NN(c2ccccc2)C(=O)CC1
-0.22* | -5.8* | COc1ccc(C(CC(=O)c2ccccc2)C2CCCCC2=O)cc1 (stereo not given)
-2.1 | i | CCOc1cccc(C(=O)N/N=C/c2coc3ccccc3c2=O)c1
2 | i | COc1ccc(NC(=O)COC(=O)c2ccc(NS(=O)(=O)/C=C/c3ccccc3)cc2)cc1
-0.68 | i | C=CCSc1nc(C)cc2c1C(=O)OC2
0.92 | i | Cc1c(Cl)cccc1NC(=O)NC1CCCCC1
0.56 | i | CCOC(=O)c1cc2sccc2n1CC(=O)Nc1ccc2c(c1)OCCO2
1.8 | i | CC(C)c1ccc(NC2CCCN(C(=O)c3cccs3)C2)cc1 (stereo not given)
-0.08 | i | CCCC#CCN1CCN(C23CC4CC(CC(C4)C2)C3)CC1
-1.7 | i | CC1CCCCN1Cc1nc2c(c(=O)n(C)c(=O)n2C)n1CCc1ccccc1 (stereo not given)

# (listing goes on)
KCNQ2 inh baseline | KCNQ2 inh | smiles
-1.1 | i | COc1cccc(NC(=O)C(=O)NCCC2CCCCN2S(=O)(=O)c2cccs2)c1 (stereo not given)
4.4 | i | Cc1ccc(-c2noc(CCC(=O)NC3CCCc4ccccc43)n2)cc1 (stereo not given)
3.8 | i | Cc1ccc(C(=O)NCc2ccco2)c(C)c1
-1.4 | i | O=S(=O)(NCc1ccncc1)c1ccc(Br)s1
0.75 | i | CCN(CC(=O)N(CC(C)C)c1c(N)n(CC(C)C)c(=O)[nH]c1=O)Cc1nc2ccccc2c(=O)[nH]1
0.22 | i | Cc1ccc(C(C)C)c(OCCCN(C)Cc2ccccc2)c1
1.4 | i | O=C(O)c1ccc2c(=O)n(-c3ccccc3F)c(=S)[nH]c2c1
0.05 | i | CN1CCN(S(=O)(=O)c2csc(C(N)=O)c2)CC1
-1.7 | i | CCOC(=O)C1(CCOc2ccccc2)CCN(Cc2cnc(SC)nc2)CC1
3.5 | i | O=C(CCc1nnc2ccc(NCc3ccccc3Cl)nn12)NCC1CCN(C2CCCC2)C1 (stereo not given)
-1.1 | i | N#CC1=C(N)Oc2nc(-c3ccccc3)[nH]c2C1c1cccnc1 (stereo not given)
0.23 | i | CCN1CCN(CC(=O)Nc2c(C(=O)OC)[nH]c3cccc(Cl)c23)CC1
0.29 | i | Cc1ccc(C(=O)CN2CCC(NC(=O)C3CCCCC3)CC2)cc1
-1 | i | O=C(Cc1ccc(Cl)cc1)Nc1cc(S(=O)(=O)N2CCOCC2)ccc1N1CCCC1
1.9 | i | Cc1nn(Cc2c(F)c(F)c(F)c(F)c2F)c(C)c1NC(=O)c1ccc(COc2ccc(Cl)cc2Cl)o1
-0.46 | i | CC(C)Sc1nnc(Cn2c(=O)sc3ccccc32)n1-c1ccccc1
0.77 | i | C/C(=N\NC(N)=O)C1CC(Cc2ccccc2)C(=O)O1 (stereo not given)
-0.32 | i | COc1ccc(-n2c(/C=C(\C)O)nc(=O)c3c(C)cc(C)nc32)cc1
-0.3 | i | O=C1CCCN2N=C(SCC(=O)Nc3ccc([N+](=O)[O-])cc3)SC2=N1
1.9 | i | O=c1c2c(c(-c3ccccc3)nn1Cc1ccccc1)CCCC2

# Ordered by length of the SMILES (descending): part of the list above.
KCNQ2 inh baseline | KCNQ2 inh | smiles
0.38 | i | CCC(C)[C@@H](CN(N=O)[C@@H](Cc1ccccc1)CN(C)N=O)N(CCc1ccccc1)N=O (stereo not given in full)
0.73 | i | CCCc1cc(C(=O)N2CCCC(CO)(CCCc3ccccc3)C2)n(C)n1 (stereo not given)
1.7 | i | COc1ccccc1CNC(=O)CCS(=O)(=O)c1ccc(Cl)cc1
1.9 | i | S=C1NC2=C(CCCC2)C2(CCCCC2)N1
0.01* | -9* | CCN(CC)CCC(=O)c1ccc(F)cc1

# Screening results: PubChem BioAssay, Johns Hopkins Ion Channel Center

# The list is partial; count on the stated rates, not on these rows.
